PrP 5UTR inh = suppresses PrP 5' UTR mRNA reporter expression; cell-based PrP 5' UTR mRNA reporter, plate reader; inhibition, % (no concentration beside the values); actives 0.35% (n = 340,000);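 active = every replicate at 50% or more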;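 note: 0 = median of the neutral control wells; tested in H4 reporter cells; numbers are from one replicate; inactives centre near -14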
Autofluor counter = compound fluorescence in toxin protease inhibitor counterscreen; compound autofluorescence counterscreen, microsphere flow cytometry; hits give high values; fluorescence intensity (no concentration beside the values); actives 3.1% (n = 360,000); AID 624483;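 active = at least 3 SD above the mean of all compounds, about 16000 in these data; inconclusive = too few beads counted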;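 note: 100 nL of 1 mM stock went into each well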
BJeLR lethal = kills HRASV12-expressing BJeLR cells; inhibition, % (concentration not given with the values); BJeLR (HRASV12) viability, CellTiter-Glo ATP luminescence, 48 h; reference of the scale not given here; actives 0.17% (n = 300,000); AID 1554;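 active = replicate mean above 50%; inconclusive = above 50% but judged a plate artefact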;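 note: 50 nL library stock added to about 25 µL; numbers are from one replicate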
Sa ugtP lethal = growth inhibition of S. aureus ugtP deletion strain. S. aureus RN4220 ugtP deletion, OD600 growth, 16 h; some inactives read as strong as hits. growth inhibition, % (concentration not given with the values). actives 0.54% (n = 330,000). AID 1259309;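 active = z-score under -3 and OD600 up to 0.15 on both plates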;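 note: plate controls were untreated wells for no effect and antibiotic for full effect; wells of about 80 µL received 100 nL stock; the first replicate is given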
Mtb hypoxia inh = Mtb hypoxia fluorescent reporter inhibition | M. tuberculosis hypoxia-regulated fluorescent reporter, fluorescence | fluorescence inhibition, % (concentration not given with the values) | actives 0.1% (n = 300,000) | AID 1159583;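 active = 35 to 45% if threefold the growth effect, above 45% if 1.5-fold the growth effect; inactive = the rest, general growth blockers included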;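 note: wells of about 50 µL received 100 nL stock; 0% = vehicle wells and 100% = reference inhibitor wells; whole bacteria with a GFP reporter of the hypoxia response; strong numbers were not always called active; many hits fall short of the cut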
Sa RN4220 lethal = S. aureus RN4220 growth inhibition. OD600, 16 h. inhibition, % (concentration not given with the values). AID 1259311. actives 0.33% (n = 330,000);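 active = z-score of -3 or lower and OD600 up to 0.18 on both plates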;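 note: plate controls were untreated cells for no effect and reference antibiotic for full effect; stock transfer was 100 nL into about 80 µL; one replicate is shown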
Mtb hypoxia inh growth = second read-out of Mtb hypoxia inh, no call of its own (marks repeat the call); growth inhibition, %; measured here: M. tuberculosis growth (absorbance);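 0% = vehicle and 100% = reference antibiotic; read after six days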
* hit, by the source's call; ? = inconclusive; · = no result given.

#1 O=C(CSc1nccn1Cc1ccccc1)Nc1nccs1
#2 COC(=O)C1=C(C)N(Cc2ccccc2)C(=NCCc2c[nH]c3ccccc23)NC1c1cccc(C(F)(F)F)c1 (stereo not drawn)
#3 COc1ccc(Cl)cc1N(CC(=O)N1CCCC1)S(=O)(=O)c1ccc(C)cc1
#4 CCCc1nc(SCC(=O)N2CCC(C)CC2)c2c(=O)n(C)c(=O)n(C)c2n1
#5 COc1ccc(C(=O)Cc2ccc3c(c2)OCO3)c(O)c1
#6 COc1cccc(-n2ccnc2SCC(=O)Nc2ccccc2F)c1
#7 Cc1[nH]c(=O)[nH]c(=O)c1C=NNC(=O)CCNC(=O)OC(C)(C)C
#8 COCCn1nnnc1C(C(C)C)N1CCSCC1 (stereo not drawn)

entry no.	1	2	3	4	5	6	7	8
PrP 5UTR inh	-22	·	-15	-18	-132	-11	·	2
Autofluor counter	3205	·	4074	5279	2620	4017	·	4050
BJeLR lethal	-1	·	0	1	6	2	·	-5
Sa ugtP lethal	-2	49	11	7	6	-2	-3	3
Mtb hypoxia inh	5	-4	0	8	-1	1	12	9
Mtb hypoxia inh growth	-22	-2	3	-1	14	13	-2	20
Sa RN4220 lethal	9.8	41	5.8	6.2	8.5	2.0	1.0	1.1

#9 O=C(COc1ccccc1)NCC(=O)NN=Cc1ccc(O)cc1O
#10 Cc1cc(OC(C)C(=O)Nc2ccncc2)ccc1Cl (stereo not drawn)
#11 CCC(c1nnc(SCC(=O)Nc2cccnc2Cl)n1-c1ccccc1)N(C)C (stereo not drawn)
#12 COc1ccc(N/C=C2\CCc3ccccc3C2=O)cc1
#13 CCc1cc(=O)oc2c(C)c(O[C@@H]3O[C@H](CO)[C@@H](O)[C@H](O)[C@H]3O)ccc12
#14 CCOc1ccccc1-n1c(CN2CCN(C(=O)c3ccco3)CC2)nc2ccccc2c1=O
#15 CN(CCOc1ccc(F)cc1)Cc1ccccc1
#16 CN(C)S(=O)(=O)c1ccc(C(=O)NCCN2C(=O)S/C(=C\c3cccnc3)C2=O)cc1

entry no.	9	10	11	12	13	14	15	16
PrP 5UTR inh	·	-4	-18	19	-5	0	-8	-6
Autofluor counter	·	3996	2544	4427	3404	23399*	4633	4333
BJeLR lethal	·	14	3	29	7	2	-14	9
Sa ugtP lethal	1	-6	1	4	9	-2	13	1
Mtb hypoxia inh	17	0	1	7	16	9	13	24
Mtb hypoxia inh growth	6	3	-1	-1	12	18	12	16
Sa RN4220 lethal	1.7	2.4	-0.1	4.9	4.0	11	9.4	8.3

#17 C=CCn1c(SCC(=O)Nc2ccc(OC)cc2)nc2c([nH]c3ccccc32)c1=O
#18 Cc1cccc(N2CCN(C(=O)CCNS(=O)(=O)c3cccs3)CC2C)c1 (stereo not drawn)
#19 CC1=NN(/C(=N\c2nnc(C)s2)Nc2ccc(C)cc2)[C@H](c2ccc(C)cc2)S1
#20 Cc1ccc2cc(C)c(Sc3nnnn3-c3ccccc3)nc2c1
#21 Cc1ccc(NC(=O)Nc2cnc3ccccc3c2)cc1
#22 CC(=O)Nc1ccc(SCC(Cc2ccccc2)N2CCC(C)CCC2=O)cc1 (stereo not drawn)
#23 COC(=O)C1(S(=O)(=O)c2cc(Br)cc3c2N(C(C)=O)CC3)CC1
#24 CCN(CC)c1ccc(S(=O)(=O)N2CCOCC2)cc1NC(=O)CSc1cccc[n+]1[O-]

entry no.	17	18	19	20	21	22	23	24
PrP 5UTR inh	4	-8	-19	-23	-128	·	-10	1
Autofluor counter	4597	3809	4203	10319	4218	·	4097	2434
BJeLR lethal	-4	2	11	2	20	·	3	-9
Sa ugtP lethal	-2	7	·	-1	5	2	0	5
Mtb hypoxia inh	7	7	·	11	0	13	·	9
Mtb hypoxia inh growth	-6	6	·	2	11	4	·	4
Sa RN4220 lethal	3.0	2.6	·	0.2	1.2	10	1.2	6.7

#25 CCCCc1ccc(-c2nc(N)n[nH]2)cc1
#26 Cc1c(C(=O)NN2CCOCC2)oc2ccccc12
#27 O=C(CSc1nnnn1C1CCCC1)c1ccc2c(c1)OCCO2
#28 Cc1cccc(NS(=O)(=O)c2cc(C(=O)N3CCN(C)CC3)ccc2C)c1
#29 COc1cccc(C(=O)COc2ccc3c(C)cc(=O)oc3c2)c1
#30 Cc1ccc(S(=O)(=O)NCCC(=O)NCc2cccnc2)cc1
#31 Cc1ccc(OCC(=O)Nc2cc(NC(=O)COc3ccc(C)c(C)c3)cc(C(=O)O)c2)cc1C
#32 Cc1noc(C)c1-c1nnc(-c2ccc(OC(F)(F)F)cc2)o1

entry no.	25	26	27	28	29	30	31	32
PrP 5UTR inh	-68	-9	-29	-10	-17	-29	-30	-27
Autofluor counter	3755	4112	11495	10211	3712	5368	3831	5634
BJeLR lethal	-3	3	-5	1	19	10	-2	0
Sa ugtP lethal	3	9	5	5	3	2	12	10
Mtb hypoxia inh	7	-6	3	1	-12	-1	6	9
Mtb hypoxia inh growth	-7	0	6	-3	6	5	3	2
Sa RN4220 lethal	-0.8	10	3.9	1.6	3.8	0.7	7.8	4.4

#33 O=C(OCC(=O)N1c2ccccc2Sc2ccccc21)c1ccc[n+]([O-])c1
#34 Cc1csc(=O)n1CC(=O)OCC(=O)c1ccc(Br)cc1
#35 O=[N+]([O-])c1ccc(CN2CCCCCC2)cc1
#36 O=C(NC1CSCC1OC(=O)c1ccccc1)c1ccccc1 (stereo not drawn)
#37 CCc1ccc(N2C(=O)CN(Cc3ccc(OC)c(OC)c3)C2=S)cc1
#38 CSCCC(NS(=O)(=O)c1cccs1)C(=O)NCc1cccs1 (stereo not drawn)
#39 COC(=O)c1ccccc1NC(=O)N[C@@H](C)C(=O)OC
#40 O=C(Cc1ccsc1)NNC(=O)c1ccc(F)cc1

entry no.	33	34	35	36	37	38	39	40
PrP 5UTR inh	-16	-7	-31	-15	-9	5	-6	4
Autofluor counter	3323	5726	3932	5241	7228	2645	6179	?
BJeLR lethal	·	-4	14	4	8	-3	-4	-5
Sa ugtP lethal	11	2	12	4	-2	-2	5	6
Mtb hypoxia inh	19	-2	12	9	4	·	10	-2
Mtb hypoxia inh growth	8	3	16	3	-4	·	9	-1
Sa RN4220 lethal	-0.9	2.4	3.3	9.4	3.5	2.8	4.8	2.4

#41 COc1ccc([N+](=O)[O-])cc1NCC(=O)Nc1cc(S(=O)(=O)N2CCCCC2)ccc1C
#42 Cc1ccc(S(=O)(=O)N2CCC(C(=O)NN=Cc3ccccc3[N+](=O)[O-])CC2)cc1
#43 CCCc1c(C(=O)OCC)[nH]c2c1C(=O)CCC2
#44 S=C(NCC1CCCO1)N1CCN(Cc2ccccc2)CC1 (stereo not drawn)
#45 CC(C)(C)CC(=O)OCC(=O)Nc1cc(C(C)(C)C)nn1-c1ccccc1
#46 COCCNC(=O)CSc1nnc(-c2ccccc2)c(-c2ccccc2)n1
#47 O=C(NCc1cccs1)C1CCCN(S(=O)(=O)c2cccc3cccnc23)C1 (stereo not drawn)
#48 COc1ccc(C(=O)NCc2nnc(SCC(=O)N3CCCCCC3)o2)cc1OC

entry no.	41	42	43	44	45	46	47	48
PrP 5UTR inh	-10	·	-19	-24	-32	-27	13	-24
Autofluor counter	3704	·	4503	4367	11132	3208	5633	·
BJeLR lethal	·	·	-14	-12	-8	4	5	1
Sa ugtP lethal	0	-4	2	-10	6	10	1	11
Mtb hypoxia inh	10	4	·	-1	8	17	·	-10
Mtb hypoxia inh growth	10	3	·	2	10	1	·	-10
Sa RN4220 lethal	5.3	7.5	2.8	0.0	8.6	5.3	1.1	3.1

Next part, starting with the last 4 of the part before.
#45 CC(C)(C)CC(=O)OCC(=O)Nc1cc(C(C)(C)C)nn1-c1ccccc1
#46 COCCNC(=O)CSc1nnc(-c2ccccc2)c(-c2ccccc2)n1
#47 O=C(NCc1cccs1)C1CCCN(S(=O)(=O)c2cccc3cccnc23)C1 (stereo not drawn)
#48 COc1ccc(C(=O)NCc2nnc(SCC(=O)N3CCCCCC3)o2)cc1OC
#49 Cc1ccc(NC(=O)CSc2nnc([C@@H]3CCCN3C(=O)OC(C)(C)C)o2)c(C)c1
#50 Cc1cccc(-n2nnnc2SCC(=O)Nc2ccc(N3CCN(C)CC3)cc2)c1
#51 Cc1ccc(N2CCN(C(=O)c3ccccc3NC(=O)C3CCCCC3C(=O)O)CC2)cc1 (stereo not drawn)
#52 COc1ccc(C(=O)OCc2c(-c3ccccc3)ncc3ccccc23)cc1
#53 ClC1(CNc2ccccc2)CCN(Cc2ccccc2)CC1
#54 Cc1cccc(C(=O)N/N=C/c2ccccn2)c1
#55 Cc1nc2c(cc1C(=O)NN=Cc1ccc([N+](=O)[O-])cc1)c(=O)n(C)c(=O)n2C
#56 COc1cccc(C=Nc2oc(-c3ccccc3)cc2C#N)c1O

entry no.	45	46	47	48	49	50	51	52	53	54	55	56
PrP 5UTR inh	-32	-27	13	-24	-14	-16	-26	-9	-12	-47	·	·
Autofluor counter	11132	3208	5633	·	2651	5819	2487	2696	4443	2625	·	·
BJeLR lethal	-8	4	5	1	1	2	4	·	-15	5	·	·
Sa ugtP lethal	6	10	1	11	0	5	6	2	1	·	2	-3
Mtb hypoxia inh	8	17	·	-10	·	6	5	22	8	·	5	8
Mtb hypoxia inh growth	10	1	·	-10	·	4	17	11	4	·	11	4
Sa RN4220 lethal	8.6	5.3	1.1	3.1	2.8	1.7	5.3	1.7	2.5	·	4.5	7.7

#57 Cc1ccc(C)n1-c1nnc(N2CCC(C(=O)N3CCN(C)CC3)CC2)s1
#58 O=C(O)c1ccc(N2C(=O)c3cccc4c(C(=O)O)ccc(c34)C2=O)cc1
#59 COc1ccc(N(CC(=O)NC2CCCC2)C(=O)c2ccc(C)s2)cc1OC
#60 COc1cc2oc3ccc(C#Cc4ccccn4)cc3c(=O)c2cc1OC
#61 Cn1nnc2cc(NC(=O)N3CC4(C)CC3CC(C)(C)C4)ccc21 (stereo not drawn)
#62 Cc1c(NC(=O)c2cc(-c3cccc(Cl)c3)on2)c(=O)n(-c2ccccc2)n1C
#63 O=C(O)c1nccnc1C(=O)NCCc1c[nH]c2ccccc12
#64 COC(=O)c1ccc(CNC(=O)[C@@H]2CCCN2S(=O)(=O)c2ccccc2F)cc1

entry no.	57	58	59	60	61	62	63	64
PrP 5UTR inh	-20	-16	-10	-6	-9	-17	-16	-9
Autofluor counter	6174	4733	5589	3429	10749	2919	4485	3038
BJeLR lethal	0	8	-9	4	-12	-6	-3	·
Sa ugtP lethal	0	·	2	-27	-6	-3	-4	8
Mtb hypoxia inh	·	·	9	-10	7	-2	1	-4
Mtb hypoxia inh growth	·	·	1	-4	15	-2	-9	-3
Sa RN4220 lethal	-2.5	·	3.6	5.2	5.8	-5.8	-2.6	3.2

#65 Cc1ccc(C(=O)N/C(=C/c2cccc([N+](=O)[O-])c2)C(=O)NC(C)C)cc1
#66 CCOC(=O)c1cn(CC(=O)Nc2ccccc2C(=O)OCC)nn1
#67 COc1ccc(S(=O)(=O)N2CCC(O)(c3ccc4c(c3)OCO4)CC2)cc1
#68 c1ccc(-c2nc(-c3cccnc3)n[nH]2)cc1
#69 CN1CCN(CC(=O)N2c3ccc(S(=O)(=O)NCCNC(=O)OC(C)(C)C)cc3C(=O)Nc3cccnc32)CC1
#70 Cc1ccccc1-n1cnnc1SCC(=O)N1CCN(c2ccccc2)CC1
#71 CC(=O)OCC(=O)[C@@]1(O)CC[C@H]2[C@@H]3CCC4=CC(=O)C=C[C@]4(C)[C@H]3[C@@H](O)C[C@@]21C
#72 COc1ccc(COc2cccc3ccc(C)nc23)cc1F
#73 C=CCNS(=O)(=O)c1cc(S(=O)(=O)NCC=C)c(OC)cc1OC
#74 Cc1cc(C)c(C)c(S(=O)(=O)N2CCC(C(=O)NCc3ccco3)CC2)c1C
#75 CC(=O)Nc1ccc(C(=O)OCC(=O)Nc2ccc(N3CCOCC3)cc2)cc1

entry no.	65	66	67	68	69	70	71	72	73	74	75
PrP 5UTR inh	-2	-14	-27	·	-18	-4	7	-23	-13	-13	-37
Autofluor counter	1905	?	10175	·	3525	3396	4077	3674	4658	3893	5063
BJeLR lethal	4	0	-6	-15	3	13	-16	-4	-10	·	20
Sa ugtP lethal	2	4	-1	6	1	-2	·	7	4	11	2
Mtb hypoxia inh	-1	9	7	-1	22	-2	·	-3	5	11	1
Mtb hypoxia inh growth	0	0	6	8	11	-1	·	1	7	12	6
Sa RN4220 lethal	4.7	-0.9	4.5	2.8	3.9	6.5	·	5.3	5.7	3.0	2.9
